Sa growth 42C: S. aureus growth inhibition at 42 and 30 °C, primary screen, LtaS inhibitor project, RN4220, two temperatures | OD600, 20 h, 42 °C; active compounds read low | relative growth, % (test concentration not listed) | 170,000 tested, 0.53% active | AID 720641, 2013;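 active = growth at 42 °C up to 50% and 20 or more points under that at 30 °C, or under 10% at both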;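 note: 300 nL library stock went into each well; scaled to the means of positive and negative controls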
HCMV UL50-53 inh: inhibitors of HCMV UL50-UL53 interaction, biochemical, HTRF | HCMV UL50-UL53 nuclear egress complex (human cytomegalovirus) | normalized percent inhibition | inhibition, % (concentration not given with the values) | 190,000 tested, 0.15% active | AID 1918969, 2023;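 active = both replicates at 50% or more, plus weaker picks with an unusually low signal ratio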;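 note: stock transfer was 100 nL into about 20 µL; 0% = negative control wells and 100% = wells with untagged competitor protein; inactives centre near -12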
GIV Gai3 FP: inhibitors of GIV peptide binding to Galpha-i3, primary screen, biochemical, fluorescence polarization, FITC-GIV GBA peptide, rat Galphai3; 210,000 tested, 0.42% active; percent of control (FP), % (concentration not given with the values); 90 min; active compounds read low; scaled: aluminum fluoride 0%, vehicle 100%; Guanine nucleotide-binding protein G(i) subunit alpha-3 (Rattus norvegicus), P08753;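 active = replicate mean at 85% of control or lower, very high polarization wells dropped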;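 note: wells of about 15 µL received 100 nL stock; the first replicate is given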
Target sequence (P08753 whole entry, looked up): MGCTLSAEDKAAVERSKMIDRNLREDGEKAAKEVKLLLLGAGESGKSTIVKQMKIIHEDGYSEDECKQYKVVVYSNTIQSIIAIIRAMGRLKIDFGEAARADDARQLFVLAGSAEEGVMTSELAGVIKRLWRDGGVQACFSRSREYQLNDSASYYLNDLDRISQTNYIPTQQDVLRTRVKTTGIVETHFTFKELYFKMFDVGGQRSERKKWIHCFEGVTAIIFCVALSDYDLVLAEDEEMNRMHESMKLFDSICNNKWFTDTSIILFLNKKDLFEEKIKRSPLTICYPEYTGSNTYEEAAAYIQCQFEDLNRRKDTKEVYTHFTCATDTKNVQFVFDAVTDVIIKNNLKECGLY
Sa growth 42C second temp: recorded beside Sa growth 42C, whose call it bears; relative growth, %; measured here: growth at 30 °C;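 optical density after 20 h as mean of two plates; 100% = untreated growth and lower means inhibition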
Numbers without * were called inactive; / = not tested or not shown; & = joins results of further samples.

#1 Cc1cc(C=C2C(=O)OC(C)(C)OC2=O)c(C)n1-c1ccc(I)cc1
#2 CCn1c(C(=O)N2CCCC(C(=O)NC(C)C34CC5CC(CC(C5)C3)C4)C2)cc2sccc21 (stereo not drawn)
#3 CC(C)Cc1csc(NC(=O)/C=C/c2ccccc2)c1C(=O)O
#4 Cc1ccc(C)c(N2CCN(S(=O)(=O)c3ccc(-c4coc(C)n4)cc3)CC2)c1
#5 CCCCN(C)C(=O)Cn1c(C2CC(=O)N(c3ccc(C)cc3)C2)nc2ccccc21 (stereo not drawn)
#6 CCN1C(=O)/C(=C/C=C2/Sc3ccccc3N2CC)SC1=S
#7 COc1ccc(-c2cc(OCC(=O)Nc3cc(Cl)ccc3OC)c3ccccc3n2)cc1
#8 CCc1ccc(C(=O)CN2C(=O)C(C)N(c3ccc(C)cc3)C2=O)cc1 (stereo not drawn)

assay / entry	1	2	3	4	5	6	7	8
Sa growth 42C	112	94	130	98	103	92	/	89
Sa growth 42C second temp	95	90	81	87	90	88	/	89
HCMV UL50-53 inh	/	-18	13	/	-23	/	-18	-17
GIV Gai3 FP	108	95	/	107	105	197	102	/

#9 CCOC(=O)c1nc2cc(C)c(C)cc2nc1NCc1ccco1
#10 CN(Cc1nc2ccccc2c(=O)[nH]1)Cc1nc2scc(-c3cccs3)c2c(=O)[nH]1
#11 Cn1c(=O)c(=O)[nH]c2cc(-c3noc(/C=C/c4ccccc4Cl)n3)ccc21
#12 CN(C)C(=O)c1ccc2ncsc2c1
#13 COc1ccc(NCc2cccn2-c2nnc(N3CCCCCC3)s2)cc1
#14 CC(C)Oc1ccc(C(=O)O)cc1
#15 CCCN1C(=O)C(NC(C)=O)c2cc(F)ccc21 (stereo not drawn)
#16 COc1ccccc1-c1c(C)nn2c(SCC(=O)NCc3ccc(Cl)cc3)cc(C)nc12

assay / entry	9	10	11	12	13	14	15	16
Sa growth 42C	/	85	/	116	95	106	91	/
Sa growth 42C second temp	/	61	/	90	88	98	76	/
HCMV UL50-53 inh	-84	-19	-11	2	/	-4	-15	12
GIV Gai3 FP	125	/	108	102	104	/	101	104

#17 O=C(CSC1CCCC1)c1cccs1
#18 C=CCOC(=O)c1sc(NC(=O)CSc2nnc3cc(C)c4ccccc4n23)nc1C
#19 O=C(CN1C(=O)/C(=C/c2ccccc2F)Oc2ccccc21)N1CCOCC1
#20 COc1ccc(-c2nc(S(=O)(=O)c3ccc(C)cc3)c(NCc3ccccc3)o2)cc1
#21 Nn1c(SCc2cc(=O)oc3cc4c(cc23)CCC4)nnc1-c1cccnc1
#22 CN(CC(=O)NC1CCCCC1)S(=O)(=O)c1c[nH]c(C(=O)N2CCCC2)c1
#23 CC1=C(C(=O)Nc2ccccc2)C(c2ccccc2C)n2nc(SCC(=O)c3ccc(C)cc3)nc2N1 (stereo not drawn)
#24 CC(C)C(c1nnnn1Cc1ccccc1)N1CCN(c2ccccc2)CC1 (stereo not drawn)

assay / entry	17	18	19	20	21	22	23	24
Sa growth 42C	78	/	94	107	84	/	105	116
Sa growth 42C second temp	94	/	100	95	89	/	101	92
HCMV UL50-53 inh	-10	-8	-1	-7	-28	-13	/	2
GIV Gai3 FP	/	97	95	105	/	104	97	100

#25 COc1ccc(C2OCc3ccccc3N2C(=O)c2cccc(OC)c2)cc1 (stereo not drawn)
#26 Cc1cccc(N2CCN(C(=O)c3nn(C)c4c3CS(=O)(=O)c3ccccc3-4)CC2)c1C
#27 Cc1ccccc1C(=O)N1CCC(N2CCN(Cc3ccc(F)cc3)C(=O)C2=O)CC1
#28 C=CCn1c(=O)[nH]c(=O)n(CC=C)c1=O
#29 Cc1cc(NC(=O)C2CCCCC2)no1
#30 COc1cccc(-n2c(-c3ccco3)nc3c(cnn3-c3ccc(C)cc3)c2=O)c1
#31 CC(C)(C)c1cc(CCC(=O)N2CCNCC2)c(C(C)(C)C)cc1O
#32 O=C(NCCCN1CCOCC1)c1cc(-c2ccc(F)cc2)nc2ccccc12

assay / entry	25	26	27	28	29	30	31	32
Sa growth 42C	105	103	116	108	92	110	102	91
Sa growth 42C second temp	103	98	99	95	78	89	99	101
HCMV UL50-53 inh	2	-18	/	-11	-35	-30	18	11
GIV Gai3 FP	/	97	107	101	101	104	99	/

#33 O=C(CSc1nc2ccccc2n1CCc1ccccc1)c1cccs1
#34 Cc1ccc(-n2nnc(C(=O)OCc3ccccc3C)c2C)cc1Cl
#35 Cc1onc(-c2ccccc2Cl)c1C(=O)NCC1CCN(C(=O)OC(C)(C)C)CC1
#36 O=C1C=C(NCc2ccccc2)C2(CCCCC2)O1
#37 Cc1cccc(NC(=O)Cn2c(=O)n(Cc3ccc4c(c3)OCO4)c(=O)c3ccccc32)c1
#38 Cc1cc(-c2csc(-c3ccccc3)n2)c(C)n1-c1cccc(S(=O)(=O)N2CCOCC2)c1
#39 Fc1cccc(-c2csc(COc3ccccc3Cl)n2)c1
#40 COc1cc(CN(C(=O)Nc2cccc(Cl)c2)c2ccccn2)cc(OC)c1OC

assay / entry	33	34	35	36	37	38	39	40
Sa growth 42C	94	/	89	102	90	113	91	102
Sa growth 42C second temp	91	/	80	89	86	91	86	86
HCMV UL50-53 inh	-12	-2	-36	-2	-24	-4	-30	-21
GIV Gai3 FP	/	108	110	/	103	/	101	101

#41 O=C1Nc2ccccc2C(O)(C(=O)N2CCCCC2)N1c1ccccc1 (stereo not drawn)
#42 CC(C)OCC(O)Cn1c(N2CCCCCC2)nc2c1c(=O)n(C)c(=O)n2C (stereo not drawn)
#43 Cc1nc(Nc2ccc(NC(=O)Nc3ccc4c(c3)OCCO4)cc2)cc(N2CCCCC2)n1
#44 Cc1ccc(CNC(=O)C2CCCN(c3nnc(-n4c(C)ccc4C)s3)C2)cc1 (stereo not drawn)
#45 Cc1nnc(NC(=O)CSc2nnc(Cc3cccn3C)n2-c2ccc(F)cc2)s1
#46 CC1CCCCC1NC(=O)NC(=O)CSc1nc2c(cnn2-c2ccccc2)c(=O)[nH]1 (stereo not drawn)
#47 CCOC(=O)c1cc(-c2ccc(N(CC)CC)cc2)no1
#48 Cc1cc(C)n(C(=O)c2ccncc2)n1

assay / entry	41	42	43	44	45	46	47	48
Sa growth 42C	64	93	/	104	81	123	76	121
Sa growth 42C second temp	94	91	/	92	89	86	56	90
HCMV UL50-53 inh	12	-26	-30	-13	/	-17	-78	/
GIV Gai3 FP	/	102	102	101	92	/	321	98

#49 CC(=O)N(Cc1ccco1)C1(C(=O)NC2CCCCC2)CCCCC1
#50 CCN(Cc1ccccc1)C(=O)CSc1ccccc1C(=O)O
#51 CC(=O)N1CCc2cc(C(=O)CN3CCOCC3)ccc21
#52 COc1ccccc1NC(=O)c1cc2ccccc2oc1=Nc1ccccc1F
#53 CC1=C(C(=O)Nc2ccccc2)C(c2ccccc2C)n2ncc(C(=O)Nc3ccccc3)c2N1 (stereo not drawn)
#54 O=C(O)CCN1C(=O)COc2ccc(Cl)cc21
#55 Cc1cn(CCC(=O)NCc2c(F)cccc2Cl)c2ccccc12
#56 COc1ccc(CNC(=O)c2ccc(-c3nc(CSc4ccc(C)cc4)c(C)o3)cc2)c(OC)c1

assay / entry	49	50	51	52	53	54	55	56
Sa growth 42C	128	98	103	109	125	100	96	81
Sa growth 42C second temp	92	91	94	94	96	77	87	82
HCMV UL50-53 inh	/	-30	-4	/	/	-6	-20	/
GIV Gai3 FP	100	/	105	101	100	101	104	112

Part of the list above, with two lines to a compound.
Values run as follows: Sa growth 42C	Sa growth 42C second temp	HCMV UL50-53 inh	GIV Gai3 FP
(54) O=C(O)CCN1C(=O)COc2ccc(Cl)cc21
  100	77	-6	101
(49) CC(=O)N(Cc1ccco1)C1(C(=O)NC2CCCCC2)CCCCC1
  128	92	/	100
(52) COc1ccccc1NC(=O)c1cc2ccccc2oc1=Nc1ccccc1F
  109	94	/	101
(50) CCN(Cc1ccccc1)C(=O)CSc1ccccc1C(=O)O
  98	91	-30	/

Later entries.
#57 O=C1Nc2ccccc2OC1CC(=O)N1CCCC1 (stereo not drawn)
#58 Cc1c(Cl)cccc1NC(=O)C(C)n1nc(C)c2c(C)n(-c3ccccc3)nc2c1=O (stereo not drawn)
#59 CCc1ccc(NS(=O)(=O)c2ccc3c(c2)C(C)(C)C(=O)N3C)cc1
#60 O=c1c2c(-c3ccccc3)csc2ncn1Cc1cccnc1
#61 CN1C(=O)c2cc(C(=O)NCc3ccccc3Cl)nn2CC1(C)C(=O)NC1CCCC1 (stereo not drawn)
#62 COc1ccccc1C(=O)N/C(N)=N/c1nc2ccccc2o1
#63 COc1ccccc1Cn1cc(C(=O)c2ccc(Cl)cc2)c(=O)c2cc3c(cc21)OCCO3
#64 CCc1ccc(NC(=O)c2ccc3c(=O)n4c(nc3c2)CCCCC4)cc1

assay / entry	57	58	59	60	61	62	63	64
Sa growth 42C	94	87	91	/	/	99	80	99
Sa growth 42C second temp	86	88	67	/	/	85	81	87
HCMV UL50-53 inh	2	/	-17	-21	-4	/	-10	/
GIV Gai3 FP	101	100	106	97	102	156	103	103

#65 CCOc1c(C)cnc2c1c(=O)n(CC(=O)Nc1c(C)cc(C)cc1C)c(=O)n2C
#66 COc1ccc(C(C)(C)C)cc1S(=O)(=O)Nc1ccc(Nc2cc(N(C)C)nc(C)n2)cc1
#67 CCOc1ccccc1OC(=O)NN
#68 COc1cc(OC)cc(C(=O)Nn2c(-c3cc(OC)c(OC)c(OC)c3)nc3ccccc3c2=O)c1
#69 CCc1c(C)nc(-n2nc(C)cc2NC(=O)c2ccccc2Br)[nH]c1=O
#70 CC(C)C(NC(=O)Cc1n[nH]c(=O)c2ccccc12)c1ccc2c(c1)OCCCO2 (stereo not drawn)
#71 O=C1CCCc2cc(S(=O)(=O)N3CCCC(C(=O)NCc4ccccc4Cl)C3)ccc2N1 (stereo not drawn)
#72 Cc1sc2c(c1C)c(=O)n(CCc1ccccc1)c(=O)n2Cc1ccc(F)cc1

assay / entry	65	66	67	68	69	70	71	72
Sa growth 42C	/	/	74	/	/	99	88	99
Sa growth 42C second temp	/	/	87	/	/	89	96	86
HCMV UL50-53 inh	7	-10	-19	-7	-11	-8	-5	-6
GIV Gai3 FP	107	97	/	105	97	/	104&104	99

#73 O=C1CSC(c2cn(-c3ccccc3)nc2-c2ccccc2)N1CCCN1CCOCC1 (stereo not drawn)
#74 CCNc1nc2cc(C)nn2c2ccccc12
#75 COc1ccc(CN2CCCN(CC(=O)Nc3ccc4c(c3)OCO4)S2(=O)=O)cc1
#76 CC1CCCCN1Cc1ccc(-c2nn[nH]n2)cc1 (stereo not drawn)
#77 CCCCOc1ccc(C(=O)NO)cc1OC
#78 O=C(Nc1ccc(Cl)cc1F)c1cc(-c2ccncc2)n[nH]1
#79 Cc1nc2c3cccnc3nn2c(C)c1CCC(=O)NCc1ccccc1Cl
#80 Cn1cc(CC(=O)Nc2ccccc2)c2ccccc21

assay / entry	73	74	75	76	77	78	79	80
Sa growth 42C	84	89	/	91	81	/	89	96
Sa growth 42C second temp	95	90	/	89	89	/	101	80
HCMV UL50-53 inh	-11	6	-7	-21	-18	7	15	-10
GIV Gai3 FP	/	/	97	98	/	104	110	96

#81 Cc1noc(C)c1COC(=O)C(c1ccccc1)c1ccccc1
#82 CCOC(=O)C1CCN(c2cc(C)nc3c(-c4ccccc4OC)c(C)nn23)CC1
#83 CN1C(=O)C(O)(c2sc(N)nc2-c2ccccc2)c2ccccc21 (stereo not drawn)
#84 O=C1CCN(C(C(=O)Nc2ccc(F)cc2)c2ccccc2)CC1 (stereo not drawn)
#85 O=C(NCc1ccc(Cl)cc1)c1cnc2sc(N3CCCCCC3)nn2c1=O
#86 O=C(CSc1nc(O)cc(=O)[nH]1)Nc1ccccc1
#87 CCOCCCNC(=O)C1c2c(n(C)c3ccccc23)SCC(=O)N1c1ccccc1F (stereo not drawn)
#88 COc1ccc(Cl)cc1-n1nnc(C(=O)O)c1C(=O)O

assay / entry	81	82	83	84	85	86	87	88
Sa growth 42C	122	83	90	104	77	116	/	/
Sa growth 42C second temp	67	91	93	93	91	102	/	/
HCMV UL50-53 inh	-13	/	-8	-2	/	-10	-16	-6
GIV Gai3 FP	/	100	/	/	100	105	99	100

#89 CCc1c(C)sc(NC(=O)c2cc(-c3ccc(OC)c(OC)c3)on2)c1C#N
#90 CCc1ccc(CNC(=O)c2cnc3sc(N4CCCCC4)nn3c2=O)cc1
#91 CC(C)N(CC(N)=O)C(=O)COc1ccccc1Cc1ccccc1
#92 Cc1ccc2cc3cc(C(=O)NCc4ccc(F)cc4)oc3nc2c1
#93 COC(=O)c1ccc2c(=O)n(-c3ccc(F)c(Cl)c3)c(SCC(=O)C(C)(C)C)nc2c1
#94 Cc1cccc2cc(C#N)c(SCC#N)nc12
#95 O=C(Cn1c(=O)nc(-c2ccccc2)c2cc(Cl)ccc21)NCCc1ccccc1

assay / entry	89	90	91	92	93	94	95
Sa growth 42C	93	91	94	108	80	113	86
Sa growth 42C second temp	101	92	95	79	88	98	89
HCMV UL50-53 inh	-6	/	-30	-18	/	-14	/
GIV Gai3 FP	105	96	/	106	97	106	99
